# Rango release inh: prevents RanGTP from dissociating the Rango-importin beta complex. Biochemical FRET Rango-importin beta, RanGTP-induced dissociation. Potency, µM (series often up to 46.1 µM), without a hit: at the highest dose activity change, negative = inhibition. 340,000 compounds, 0.071% hits. AID 540253; active means falling FRET ratio curve, often poorly fitted, with flat reads before Ran was added; inconclusive means other falling curves, or compound fluorescence or quenching; inactive means flat or rising ratio curve;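 further: potency means the concentration at half of the fitted maximal effect; % of control where 0% means no effect; nearly all actives have a fitted effect of over 45% in size; -100% = wells without RanGTP and RCC1; the record marks most hits as doubtful in a second field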
#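 Rango (0.1 uM)–importin beta (0.25 uM) complex; RanGTP-RCC1 trigger; 45 min RT; CFP/YFP FRET read.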
# miR-21 reporter: miR-21 reporter, rising signal. HeLa miR-21 FLuc reporter, luciferase, 48 h. Potency, µM (highest dose often 38.3 µM), without a hit: at the top dose reporter change, positive = more light. AID 2288. 340,000 tested, under 10 active; active = well fitted rising curve with a large enough effect; inconclusive = small, poorly fitted or top-dose-only effect; inactive = no such curve, though single readings can be large or run the other way;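 further: % of control where 0% means no effect; miR-21 action dims this reporter so a rising signal means less miR-21 action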
#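 Compounds were titrated across several concentrations (up to approximately 40 uM) and incubated 48 hours with HeLa miR-21-FLuc reporter cells (miR-21 target sequence downstream of FLuc, endogenous miR-21). Readout was firefly luciferase luminescence after lytic detection reagent.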
# GLA inh pH 4.5: alpha-galactosidase A (human) inhibition, pH 4.5 | P06280 | purified enzyme, 4-MU-alpha-Gal fluorescence, pH 4.5 | activity change, negative = inhibition, % at 105 µM | 230,000 tested, under 10 active; inconclusive = small, poorly fitted or top-dose-only inhibition, or a rising curve; inactive = flat fitted curve, though single readings scatter; no compound was filed as active;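 further: 0% = full activity with enzyme and -100% = basal without enzyme; dose as in the result columns while the protocol names 77 µM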
# Target sequence (P06280 whole entry, looked up): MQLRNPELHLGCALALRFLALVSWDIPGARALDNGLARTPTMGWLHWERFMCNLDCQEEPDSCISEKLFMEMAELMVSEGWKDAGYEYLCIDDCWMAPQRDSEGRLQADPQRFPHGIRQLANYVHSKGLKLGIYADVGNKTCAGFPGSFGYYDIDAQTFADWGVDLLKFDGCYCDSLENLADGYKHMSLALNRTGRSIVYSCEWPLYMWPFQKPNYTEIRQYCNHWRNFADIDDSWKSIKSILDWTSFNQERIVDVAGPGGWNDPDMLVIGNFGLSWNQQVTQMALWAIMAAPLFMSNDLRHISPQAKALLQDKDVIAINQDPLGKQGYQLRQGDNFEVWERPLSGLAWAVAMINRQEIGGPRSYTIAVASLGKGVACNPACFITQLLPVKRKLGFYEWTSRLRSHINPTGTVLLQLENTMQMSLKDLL
# Rango complex inh: inhibitors of Rango-importin beta complex formation; Q14974; Rango CFP/YFP FRET sensor + importin beta, 45 min; Potency, µM (highest dose often 92.2 µM), inactives show at the top dose inhibition of complex formation; 340,000 compounds, 0.031% hits; AID 540263; active = rising FRET ratio curve, often small or poorly fitted; inconclusive = mostly compound fluorescence or quenching in the first reads; inactive = flat curves in all reads;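 further: potency means the concentration at half of the fitted maximal effect; 0% = DMSO wells and 100% = buffer wells lacking importin beta; nearly all actives have a fitted effect of over 15% in size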
#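 Inhibition scored from the CFP 486 nm/YFP 530 nm FRET ratio 45 min after adding 0.125 microM importin beta to 50 nM Rango biosensor preincubated 5 min with compound (room temperature, PBS with DTT, Tween-20, BSA). No-importin wells as positive control.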
# * hit, by the source's call; u = inconclusive; x = no result given. Not all compounds are listed (hit frequency here may not be typical).
# The opening 5 compounds, ahead of the listing:
compound	Rango release inh	miR-21 reporter	GLA inh pH 4.5	Rango complex inh
CCCN(C(=O)COC(=O)Cn1c(=O)oc2ccccc21)c1c(N)n(Cc2ccccc2)c(=O)[nH]c1=O	-9%	x	x	-4.5%
Cc1ccc(/C=C2\SC(N)=NC2=O)s1	-3%	-4%	-11	4.9%
CC1CCN(C(=O)CSc2nnc3ccccn23)CC1	7%	x	x	1.4%
CCOC(=O)/C(=C\c1ccc(OC(F)F)cc1)C1=Nn2c(nnc2-c2ccc(Cl)cc2)SC1	6%	u	-15	-2.6%
C/C(=N\Nc1ccc(C(=O)O)cc1)c1ccc(Cl)s1	9%	-42%	x	0.5%

# The listing, previewed entries included:
compound	Rango release inh	miR-21 reporter	GLA inh pH 4.5	Rango complex inh
CCCN(C(=O)COC(=O)Cn1c(=O)oc2ccccc21)c1c(N)n(Cc2ccccc2)c(=O)[nH]c1=O	-9%	x	x	-4.5%
Cc1ccc(/C=C2\SC(N)=NC2=O)s1	-3%	-4%	-11	4.9%
CC1CCN(C(=O)CSc2nnc3ccccn23)CC1	7%	x	x	1.4%
CCOC(=O)/C(=C\c1ccc(OC(F)F)cc1)C1=Nn2c(nnc2-c2ccc(Cl)cc2)SC1	6%	u	-15	-2.6%
C/C(=N\Nc1ccc(C(=O)O)cc1)c1ccc(Cl)s1	9%	-42%	x	0.5%
CCn1c(SCc2nc(-c3cccs3)no2)nnc1-c1c[nH]c2ccccc12	2%	24%	-13	-2.0%
Nc1ccc(-c2nc3ccccc3[nH]2)cc1	9%	-3%	0	-5.9%
CC(NC(=O)COC(=O)C1CC1C)c1ccccc1 (centres undefined)	-3%	x	x	-0.8%
Cc1nn(-c2ccccc2)c2sc(C(=O)OCn3nnc4ccccc4c3=O)cc12	6%	0%	2	-1.4%
CC(=O)Nc1ccc(N(C(=O)c2cnccn2)C(C(=O)NC2CCCCC2)c2ccc(F)cc2)cc1 (centres undefined)	46%	7%	x	3.9%
Brc1cccc(-c2nnc(SCc3nc4ccccc4[nH]3)o2)c1	6%	-11%	-15	-4.6%
CSc1ncccc1C(=O)OCC(=O)c1cc(C)n(C)c1C	5%	x	x	-4.6%
O=C(NCCc1cccs1)C1CCC(=O)N(CCc2cccc(F)c2)C1 (centres undefined)	-6%	-4%	x	-0.6%
CCOC(=O)CN(C)Cc1cn[nH]c1-c1ccc2cc(OC)ccc2c1	-19%	-15%	x	-1.3%
C/C(=C\c1ccccc1)CN1CCN(c2ccccc2F)CC1	15%	-10%	-1	1.9%
Cc1ccc(CON=C2CCN(c3ncc(C(F)(F)F)cc3Cl)CC2)cc1	17%	1%	-21	-1.8%
Cc1ccc(N2CC(C(=O)OCC(=O)NNC(=O)c3ccccc3)CC2=O)cc1 (centres undefined)	-3%	x	x	0.6%
Cc1ccc(NC(=O)CN(C)CC(=O)Nc2ccc(N3CCOCC3)cc2)c([N+](=O)[O-])c1	-10%	-9%	6	u
Cc1ccc(C)c(NC(=O)CCC(=O)NNC(=O)c2cccs2)c1	-7%	0%	4	-3.5%
CCN(CCNC(=O)c1cc(C)nn1-c1ccccc1)c1ccccc1	19%	-2%	-12	-5.8%
CN1CCN(C(=O)c2ccc3c(=O)n(Cc4ccco4)c(=S)[nH]c3c2)CC1	-19%	-5%	9	3.1%
Cc1cc(-c2csc(NC(=O)c3ccc(S(=O)(=O)N(C)C)cc3)n2)c(C)n1-c1ccccc1	1%	-4%	1	-0.2%
CN1CCN(NC(=O)CN2C(=O)/C(=C/c3ccccc3F)SC2=S)CC1	x	-9%	-6	x
Brc1ccc(CSc2ccc3nnc(-c4ccccn4)n3n2)cc1	5%	-1%	-4	-1.1%
O=C(CN1CCN(c2ccccn2)CC1)Nc1ccc(Br)cc1	18%	-5%	x	u
COC(=O)c1ccc(N2CCN(S(=O)(=O)c3c(C)cc(C)cc3C)CC2)c([N+](=O)[O-])c1	2%	-10%	-3	2.8%
CSCCC(NC(=O)c1ccccc1Cl)C(=O)NCC(c1ccc(F)cc1)N1CCOCC1 (centres undefined)	24%	x	x	-3.2%
Cc1noc(C)c1S(=O)(=O)N1CCC2(CC1)OCCO2	3%	-3%	-1	-2.1%
CC1=NNC(=O)/C1=C\c1cn(-c2ccccc2)nc1-c1cccs1	-6%	u	4	6.3%
COC(=O)c1ccc(CNC(=O)Cn2cnc3c(OCc4ccccc4)ncnc32)cc1	17%	x	x	-1.3%
O=C(CCC(F)(F)F)N1CCCC(N2CCN(c3cccc(Cl)c3)CC2)C1 (centres undefined)	1%	x	x	0.3%
CCc1cccc(C)c1NC(=O)CO/N=C(\C)c1cc2ccccc2o1	-18%	5%	0	3.8%
Cc1cc(=O)[nH]c(SCC(=O)Nc2cccc(S(=O)(=O)N3CCOCC3)c2)n1	9%	x	x	2.4%
Cc1ccc(OCC(=O)c2cc(C)n(Cc3ccco3)c2C)c([N+](=O)[O-])n1	0%	0%	-6	-1.5%
CN(CC(=O)Nc1ccc(N2CCOCC2)cc1)C(=O)CCc1ccccc1Cl	-12%	x	x	-1.1%
CCOc1cc(-c2sc(Nc3ccccc3)n[n+]2-c2ccc(F)cc2)ccc1OC	2%	1%	x	-3.5%
CCC1CCc2c(sc(NC(=O)CSc3nc(-c4ccco4)cc(C(F)(F)F)n3)c2C#N)C1 (centres undefined)	1%	-2%	0	-2.1%
COc1ccccc1N1C(=O)CC(Sc2ccccc2N)C1=O (centres undefined)	-22%	-12%	-3	-0.1%
CC(C)[C@H](NC(=O)c1ccccc1F)C(=O)NCc1ccc(S(N)(=O)=O)cc1	-9%	1%	x	u
CN(C(=O)c1cccc(NC(=O)Cc2ccc(NC(=O)C3CCCN(C(=O)CCc4ccccc4)C3)cc2)c1)C1CC1 (centres undefined)	3%	x	x	0.6%
CC(C)(C)Nc1nc2nonc2nc1NC(C)(C)C	-6%	-1%	-3	-2.1%
Cc1nc2nc(CCc3ccccc3)nn2c(C)c1Cl	11%	-35%	-2	4.7%
Cn1cnnc1SCC(=O)NC1CCCN(Cc2ccccc2F)C1 (centres undefined)	-7%	0%	x	0.8%
Cc1c(N)cccc1[N+](=O)[O-]	5%	x	x	1.0%
Cc1ccc(S(=O)(=O)N2CCC(C(N)=O)CC2)c(C)c1C	1%	-6%	3	-1.4%
CCC1Sc2ccc(S(=O)(=O)CCC(=O)Nc3ccc(OC(F)(F)F)cc3)cc2NC1=O (centres undefined)	18%	25%	x	-1.6%
CC(C(C(=O)N1CCCCC1)N1CCCCC1)N1CCCCC1 (centres undefined)	4%	x	x	-2.9%
Nc1ccccc1-c1nnc(-c2ccc(-c3ccccc3)cc2)o1	-1%	-55%	u	-4.8%
Cc1ccc(N2CC(C(=O)NCc3cccs3)CC2=O)cc1C (centres undefined)	1%	-3%	-15	0.2%
COc1ccc(CC(=O)NCCCc2ccccc2)cc1OC	18%	-1%	x	-2.9%
C=C(Cl)COc1ccc2c(CCC)cc(=O)oc2c1	-15%	-19%	6	1.8%
CC(OC(=O)c1ccc(O)cc1)C(=O)Nc1ccc(Oc2ccccc2)cc1 (centres undefined)	-6%	x	x	-1.2%
O=c1c2ccccc2cnn1Cc1n[nH]c(=S)n1-c1ccccc1Cl	-6%	7%	-6	2.8%
O=C(Cn1nnc(-c2ccccc2)n1)NCc1ccco1	-12%	0%	7	-0.3%
C=CCn1c(CNC(=O)c2ccco2)nnc1SCC(=O)Nc1cccc(Br)c1	0%	-5%	6	2.7%
COc1cc(/C=N/NC(=O)c2ccccn2)ccc1OC(=O)c1cccs1	-10%	-46%	x	-0.3%

# Next section.
compound	Rango release inh	miR-21 reporter	GLA inh pH 4.5	Rango complex inh
CC1CCc2c(sc3[nH]c(=S)n(C)c(=O)c23)C1 (centres undefined)	3%	-36%	x	3.3%
CC(=O)Nc1ccc(NC(=O)C(=O)NCC(c2ccco2)N2CCc3ccccc32)cc1 (centres undefined)	-7%	x	x	-1.6%
CN1CCN(CCOc2ccc(Cl)c(Cl)c2)CC1	0%	-12%	-8	-1.8%
COc1ccc(OC(C)C(=O)Nc2ccc([N+](=O)[O-])cc2)cc1 (centres undefined)	-6%	5%	x	-1.8%
Cc1nc2ccc(S(=O)(=O)NC(CC(C)C)C(=O)O)cc2s1 (centres undefined)	-12%	-1%	9	-1.5%
COc1nc(OCCNC(=O)Nc2ccccc2)nc(N(C)C)n1	2%	-9%	2	2.0%
COc1ccc(C2CC(=O)C(C(c3ccc(O)cc3)C3C(=O)CC(c4ccc(OC)cc4)CC3=O)C(=O)C2)cc1 (centres undefined)	x	0%	-3	x
CC(=O)N1CCN(C(=O)CNC(=O)c2ccc(C)s2)CC1	10%	x	x	1.9%
Cn1cc(/C=N/NC(=O)c2cc3cc(Br)ccc3o2)c2ccccc21	u	0%	1	u
Cc1ccc(S(=O)(=O)CC(O)CN2CCCC2=O)cc1 (centres undefined)	-3%	0%	-1	u
COc1ccccc1CNC(=O)CCS(=O)(=O)c1ccc2c(c1)CCCN2C(C)=O	-6%	-3%	7	0.1%
COc1cc(/C=N/NC(=O)CCNC(=O)c2ccccc2Cl)ccc1O	1%	-8%	0	-0.4%
CCSc1nsc(NC(=O)Nc2ccccc2F)n1	-4%	2%	x	0.6%
COc1ccc(-c2cc3nc(C)cc(N4CC(C)CC(C)C4)n3n2)cc1 (centres undefined)	14%	-5%	-2	u
CC(NC(=O)NC12CC3CC(CC(C3)C1)C2)C1CCCO1 (centres undefined)	-5%	-8%	7	-0.5%
C/C(CC(=O)Nc1cccc(Cl)c1C)=N\NC(=O)C(=O)NCC(C)C	1%	18%	1	u
CSc1nnc(C)c(=O)n1COC(=O)COc1ccc2ccccc2c1	1%	2%	10	0.2%
CN(CC(=O)Nc1ccc(C#N)cc1)Cc1ccc(Cl)cc1Cl	5%	1%	0	-4.7%
COc1ccc(N(Cc2ccc(N(C)C)cc2)C(=O)c2ccc(S(C)(=O)=O)cc2)cc1	6%	-4%	x	1.3%
C=Cc1cccc(NC(=O)COc2ccccc2)c1	2%	-40%	-3	0.3%
CCOc1cc(CNCc2ccccn2)ccc1OCC(=O)NC(C)(C)C	1%	-2%	1	0.0%
CC(c1ccco1)N(Cc1ccco1)C(=O)Nc1ccccc1 (centres undefined)	-10%	-6%	2	-0.4%
Cc1ccc2cccc(S(=O)(=O)N3CCN(c4ccccc4F)CC3)c2n1	-7%	-7%	5	-0.8%
Nc1nc(SCC(=O)Nc2ccc(OC(F)(F)F)cc2)[nH]c(=O)c1NC(=O)c1ccc(Br)o1	4%	2%	x	0.6%
COc1ccc(NC(=O)c2cc(C(=O)Nc3ccc(OC)cc3OC)cc([N+](=O)[O-])c2)c(OC)c1	39%	0%	x	-0.5%
O=C(NCc1ccccc1Cl)c1cccc(NC(=O)c2ccccc2)c1	-15%	-2%	-5	0.3%
Nc1cc(Cl)ccc1C(=O)OCC(=O)N1CCOCC1	8%	-28%	14	-1.1%
CCCNC(=O)C1CN(S(=O)(=O)c2ccc(Cl)s2)c2ccccc2O1 (centres undefined)	-3%	x	x	-1.8%
COc1ccc(F)cc1S(=O)(=O)Nc1ccc2c(c1)OCO2	-10%	-2%	-2	0.0%
COc1cccc(NC(=O)N2CCN(c3cccc(C)c3)C(C)C2)c1 (centres undefined)	-8%	-12%	1	-0.9%
CCOC(=O)C(C)n1nc(/C=C/c2ccccc2)ccc1=O (centres undefined)	3%	-33%	-16	u
COc1ccc(N2CCN(Cc3nc4c(c(=O)[nH]c(=O)n4C)n3Cc3cccc(Cl)c3)CC2)cc1	8%	2%	-1	-1.2%
COc1ccc(S(=O)(=O)N2CCC(C(=O)NC3CCCC3)CC2)cc1OC	-1%	-2%	x	0.7%
O=c1cc(NCCCO)c2ccccc2o1	2%	5%	6	-4.1%

# Screening data: PubChem, National Center for Advancing Translational Sciences (NCATS)
